UCH37 DUB inh – blocks the human deubiquitinase UCH37; Q9Y5K5; purified proteasome/UCH37, Ub-AMC cleavage fluorescence; inhibition, % (concentration not given with the values); 330,000 tested, 0.33% active; AID 588478;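 active means mean of two replicates above 20%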;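 further: 0% = compound-free wells with enzyme and 100% = wells lacking proteasome; stock transfer was 100 nL into about 20 µL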
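System: Proteasome-associated human UCH37 deubiquitinase; Input: 0.15 nM proteasome in added enzyme buffer; Also added: Ub-AMC substrate from 1 µM stock; Incubation: 30 min compound-proteasome preincubation then 25 min substrate reaction, room temperature; Detection: fluorescence, ex 355 nm, em 460 nm; Read-out: % inhibition of Ub-AMC cleavage fluorescence; Benchmarks: no-proteasome and no-compound wells.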
HNF4A DNA FP – change in binding of human HNF4 alpha to DNA; P41235; HNF4a-FITC DNA binding, fluorescence polarization, 1 h; activity change, % at 10 µM; 360,000 tested, 0.3% active; AID 1224865; in the data active means activity change above about 30%, passing the limit was not always enough;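 further: controls were the assay level and a saturating level of protein; the project sought stronger binding though the title names inhibitors; some compounds called inactive have numbers as strong as hits; positive values seem to mean higher polarization but the record does not say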
FGF22 binding – FGF22 (human) thermal shift binding; recombinant FGF22 thermal shift, SYPRO orange fluorescence; percent of sucrose octasulfate shift, DMSO zero; calls only at 9.99 µM; 340,000 tested, 1.5% active; AID 651658;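 active means melting point raised past a set limit in the mean and every replicate; three in four hits are not shown here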
Target sequence (Q9HCT0 whole entry, looked up): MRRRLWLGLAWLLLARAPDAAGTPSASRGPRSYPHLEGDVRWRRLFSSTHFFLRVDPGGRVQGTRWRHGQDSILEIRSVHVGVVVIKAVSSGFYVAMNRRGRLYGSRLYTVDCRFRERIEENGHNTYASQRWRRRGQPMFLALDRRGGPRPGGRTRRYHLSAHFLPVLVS
Beta2AR agonist – human beta-2 adrenergic receptor agonism by FAP. 340,000 tested, 0.43% active. response, % (test concentration not listed). P07550. Am2.2-beta2AR cells, FAP receptor internalization, flow cytometry; reference of the scale not given here;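 active means response above a set limit, near 3 SD of response in nonfluorescent compounds, cut at about 42% in these data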;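 further: stock transfer was 100 nL into about 11 µL; a reference agonist was the positive control; negative values mostly stem from fluorescent compounds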
Target sequence (P07550 whole entry, looked up): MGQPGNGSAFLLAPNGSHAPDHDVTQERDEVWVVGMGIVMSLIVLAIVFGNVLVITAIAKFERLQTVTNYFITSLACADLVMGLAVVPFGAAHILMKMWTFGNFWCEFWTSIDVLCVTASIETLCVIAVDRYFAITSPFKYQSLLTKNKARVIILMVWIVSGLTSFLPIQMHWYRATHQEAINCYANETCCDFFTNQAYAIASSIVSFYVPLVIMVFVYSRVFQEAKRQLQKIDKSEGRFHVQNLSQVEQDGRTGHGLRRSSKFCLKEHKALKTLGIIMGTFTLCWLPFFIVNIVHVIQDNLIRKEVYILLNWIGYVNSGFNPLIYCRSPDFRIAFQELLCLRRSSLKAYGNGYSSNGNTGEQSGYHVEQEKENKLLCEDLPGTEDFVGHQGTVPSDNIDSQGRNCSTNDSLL
rRNA inh HTS – inhibits bacterial ribosomal RNA function over humanized ribosomes; E. coli WT GFP vs humanized-ribosome RFP mutants, fluorescence, 24 h; hits give low values; DMSO median 0, no signal -100; GFP signal change (wild-type ribosome), % (no concentration beside the values); 350,000 tested, 1.6% active;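 active means significant combined selectivity score with lowered wild-type GFP, culture density cut under 30%, mutant RFP and density less affected; inactive means any of these conditions unmet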; further: one replicate is shown; some compounds called inactive have numbers as strong as hits
ALR inh – inhibitors of human sulfhydryl oxidase ALR; purified ALR, DTT oxidation, H2O2 HRP-luminol luminescence; inhibition, % (test concentration not listed); 290,000 tested, 3.8% active; AID 485317; P55789;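 active means mean and each replicate at 75% or more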;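 further: stock transfer was 7.5 nL into about 7.5 µL; 0% = neutral wells and 100% = wells with inactivated enzyme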
Target sequence (P55789 whole entry, looked up): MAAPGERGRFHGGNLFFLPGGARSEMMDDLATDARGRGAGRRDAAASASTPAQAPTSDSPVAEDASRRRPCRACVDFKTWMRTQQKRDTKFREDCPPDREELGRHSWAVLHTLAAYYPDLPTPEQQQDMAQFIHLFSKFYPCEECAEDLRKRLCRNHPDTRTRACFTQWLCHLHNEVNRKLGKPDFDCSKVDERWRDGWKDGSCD
Ecoli growth – blocks Escherichia coli growth. OD600, 23 h; hits give low values. OD600 absorbance (no concentration beside the values). 330,000 tested, 0.21% active. AID 1053175;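 active means OD600 absorbance below the run mean of sample wells minus 3.6 SD, in any replicate, cut at about 0.56 in these data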;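 further: stock transfer was 300 nL into about 60 µL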
rRNA inh HTS OD600 – further read-out of rRNA inh HTS, marked with its call; OD600 change, %; measured here: OD600 growth;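 optical density of the mix in the first replicate; 0 = DMSO median and -100 = no signal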
rRNA inh HTS RFP – recorded beside rRNA inh HTS, whose call it bears; RFP signal change, %; measured here: RFP humanized mutant strains;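 first replicate; 0 = DMSO median and -100 = no signal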
An asterisk follows results filed as active; i = inactive; . = not tested or not shown. An excerpt; rates above refer to the full screens.

canonical_smiles,UCH37 DUB inh,HNF4A DNA FP,FGF22 binding,Beta2AR agonist,rRNA inh HTS,rRNA inh HTS OD600,rRNA inh HTS RFP,ALR inh,Ecoli growth
CCc1cc(=O)oc2c(C)c(OCC(=O)N3C[C@H]4C[C@@H](C3)c3cccc(=O)n3C4)ccc12,-3.3,2.8,i,0,.,.,.,-14,0.73
O=C(CN1C(=O)COc2ccccc21)N1CCC2(CC1)OCCO2,4.8,3.0,i,7,3,7,-2.3,-2,0.68
O=C(C(=O)N1CCOCC1)c1cn(CCCOc2ccccc2)c2ccccc12,6.2,-0.1,i,2,-19,-24,-3.3,.,0.72
Clc1cccc(Cl)c1NC1=NCCS1,.,1.1,i,.,-3,-18,0.4,.,.
O=c1c2ccccc2nc(-c2ccco2)n1-c1ccc(Br)cc1,1.9,1.8,i,-3,3,-14,0.4,0,0.66
Cc1ccc2nsnc2c1-n1c(C)nc2ccccc2c1=O,0.3,2.0,.,0,.,.,.,-38,0.65
CC(Cc1ccccc1Sc1ccc(O)cc1)N(C)C (centres undefined),1.0,0.0,.,10,.,.,.,99*,0.66
CCCCn1c(=O)c(C=Nc2cccnc2Cl)c(O)n(CCCCl)c1=O,-80,-2.2,i,-1,13,13,2.0,1,0.72
Cn1c(N2CCNCC2)nc2ccccc21,1.7,-2.0,i,-5,8,3,-6.5,-4,0.69
FC(F)(F)c1ccccc1N1CC1c1ccncc1 (centres undefined),1.3,1.2,i,-6,6,11,1.7,.,0.67
C=CC1CN2CCC1CC2C(OC(C)=O)c1ccnc2ccc(OC)cc12 (centres undefined),-4.8,1.0,.,3,10,15,3.0,-5,0.7
O=c1[nH]c(=O)n(-c2ccc(Cl)cc2)c(O)c1C=NCCN1CCCCC1,4.6,4.0,i,1,17,3,-9.2,2,0.7
COC(=O)C1=C(c2ccc(Cl)c(C(F)(F)F)c2)C[C@@H]2CC[C@H]1N2C(=O)NCCOc1ccccc1Cl,2.2,-1.2,.,7,.,.,.,-4,0.73
Cc1cc(O)c2c(C)c(CC(=O)N3C[C@H]4C[C@@H](C3)c3cccc(=O)n3C4)c(=O)oc2c1,-3.3,-1.7,i,-6,.,.,.,85*,0.73
O=c1[nH]c2ccccc2n1C1CCN(C(c2cccs2)c2nnnn2Cc2ccccc2)CC1 (centres undefined),.,-1.2,i,.,-13,-13,2.3,.,.
CCOC(=O)c1cn2nc(OP(=S)(OCC)OCC)cc2nc1C,-0.4,0.5,.,-7,.,.,.,2,0.77
COc1cc2[nH]c(=O)n(-c3ccc(C)cc3)c(=O)c2cc1OC,-21,1.1,.,-4,4,2,-5.1,.,0.67
COC(=O)C1=C(c2ccc3ccccc3c2)C[C@@H]2CC[C@H]1N2C(=O)NCCO,1.0,-3.1,i,-1,-2,-2,4.9,-29,.
CCN(CC)c1ccc(N=Cc2c(O)n(-c3ccc(Cl)cc3)c(=O)[nH]c2=O)cc1,4.9,45,.,-260,.,.,.,-5,0.81
COC(=O)C1=C(c2ccc(F)cc2OCc2ccccc2)C[C@@H]2CC[C@H]1N2C(=O)NCc1ccc(OC)cc1,-1.5,2.3,i,2,3,-1,-4.9,-7,0.78
O=C1NC(=O)C(Nc2ccc(Cl)c(Cl)c2)C(=O)N1,59*,0.1,i,-2,-2,11,-2.5,.,0.65
CN(C)C(=O)Oc1ccc2c(c1)O/C(=C\c1ccccc1)C2=O,0.3,3.0,i,0,-11,-14,-6.8,5,0.65
CCCC(C)C1(CC)C(=O)NC(=Nc2ccc(F)cc2)NC1=O (centres undefined),1.7,0.4,.,9,.,.,.,-18,0.7
COC(=O)C(O)(c1ccc2c(c1)CCCN2)C(F)(F)F (centres undefined),-1.5,0.3,i,8,1,-4,-1.5,97*,0.64
COc1ccc(CCNCc2sccc2C)cc1,1.6,-2.5,i,-4,15,9,1.4,4,0.7
O=C1OC(c2ccc([N+](=O)[O-])cc2)=N/C1=C/N1CC2CC(C1)c1cccc(=O)n1C2 (centres undefined),7.7,3.0,i,4,-2,6,1.5,-7,0.7
Cc1ccc(Cn2nc(C(=O)Nc3ccc(Br)cc3)cc2C)cc1,3.2,0.1,i,-20,-1,-20,4.8,.,0.64
CC(=O)N(C1=NCCCS1)c1ccccc1F,5.2,4.7,.,-7,.,.,.,-3,0.69
O=C(C1CCCN(c2nnc(-n3cccc3)s2)C1)N1CCC2(CC1)OCCO2 (centres undefined),-5.6,0.1,.,23,.,.,.,-10,0.73
CN1CCN(c2ccc([N+](=O)[O-])cc2Cl)CC1,7.6,-3.0,i,4,-3,4,-4.6,-15,0.66
C(#CCN1CCCC1)CN1CCCC1,5.6,0.4,i,-1,14,19,-2.5,.,0.7
O=C1NC(=O)C(=Cc2cc(Cl)ccc2OCc2ccc(C(=O)O)cc2)C(=O)N1,-3.2,2.1,i,3,-14,-2,-4.3,1,0.72
COc1ccc(CN2CCN(C(=O)Cc3ccccc3)CC2)c(OC)c1,4.4,0.8,.,-3,.,.,.,.,0.7
COc1ccc(C2=NCC(=O)N(CC(=O)NCc3ccco3)c3sc4c(c32)CCCC4)cc1,3.9,-1.9,.,-3,.,.,.,-4,0.7
CCCOP(=O)(OCCC)C(NC(=O)c1ccccc1)=C(Cl)Cl,-0.3,-0.6,i,-6,8,7,4.3,0,0.69
COC(=O)N(C)c1ccc(C(O)(C(=O)OC)C(F)(F)F)cc1 (centres undefined),1.2,3.7,i,9,9,10,-0.2,-27,0.64
O=C1/C(=C\c2ccc(Cl)cc2Cl)N2CCC1CC2,2.0,1.1,i,2,3,-9,-0.4,37,0.67
CCOc1cc(CN2CCN(C(=O)Cc3ccccc3)CC2)ccc1OC,5.3,0.4,i,7,-5,3,-4.1,.,0.67
CCOc1ccccc1-n1c(O)c(C=NCCCN(CC)CC)c(=O)[nH]c1=O,-1.1,2.0,.,5,.,.,.,-9,0.71
COc1ccc2c(c1O)-c1c(OC)c(OC)cc3c1[C@H](C2)N(C)CC3,3.2,-6.5,i,-13,.,.,.,-20,.
COC(=O)C1=C(c2ccc(OCc3ccccc3)cc2)C[C@@H]2CC[C@H]1N2C(=O)NCc1ccc([N+](=O)[O-])cc1,2.2,0.4,i,20,6,5,1.0,-4,.
CCOC(=O)C1CCN(/C=C2/C(=O)NC(=S)N(c3cccc(OC)c3)C2=O)CC1,2.8,-4.8,i,-9,3,1,-1.8,4,.
CCN1CCN(c2cc(N3CCCC3)c(F)cc2[N+](=O)[O-])CC1,3.4,-0.6,.,-10,.,.,.,-1,0.66
CCOP(=O)(C(NC(=O)c1ccccc1Cl)=C(Cl)Cl)c1ccccc1 (centres undefined),-0.3,3.5,.,2,.,.,.,-14,0.68
NC(=O)c1cn(C2CCCCC2)c2ccccc2c1=O,2.2,2.3,i,1,4,7,0.2,.,0.68
CC(C)OCCCNC(=O)c1c(N)n(Cc2cccs2)c2nc3ccccc3nc12,.,3.6,.,13,.,.,.,36,.
CCc1ccc2nc(N3CCC(C(=O)N4CCC5(CC4)OCCO5)CC3)sc2c1,-2.2,-0.6,i,3,-35,-39,-4.9,-7,0.65
O=S(=O)(c1ccc(F)cc1)N1CCCCC1c1cccnc1 (centres undefined),-3.4,-4.1,i,4,7,-1,-5.1,0,0.69
COc1ccc2c3c1O[C@H]1C(=O)CC[C@H]4[C@@H](C2)N(C)CC[C@]314,-0.4,0.4,i,1,6,3,0.0,.,0.75
CN1CCc2nc(SCc3cccc(Br)c3)c(C#N)cc2C1,0.9,6.5,i,14,-7,-9,12,99*,0.66
COc1cccc(-n2c(CN3CCN(C)CC3)nc3ccc([N+](=O)[O-])cc3c2=O)c1,6.5,1.8,i,0,5,-6,1.4,-5,0.72
O=[N+]([O-])c1ccccc1CNCCc1ccc(F)cc1,5.9,-2.4,.,3,.,.,.,-4,0.68
COc1ccccc1N(CC(=O)NC1CCCC1)C(=O)c1cnn(C(C)C)c1,5.5,2.2,.,-6,.,.,.,-7,0.71
CCN1C(=O)C(=C2C=C(C)N(Cc3ccco3)C(C)=C2)C(=O)N(CC)C1=S,-6.7,4.2,.,5,.,.,.,5,0.69
O=C1CC(=O)N(c2ccc(Cl)cc2)C(=O)N1,-2.2,12,i,3,13,9,0.4,-6,0.62
CCCCCSc1cc(OC)c(CCN(C)C)cc1OC,2.2,0.5,.,8,.,.,.,-1,0.74
CN1CCCN(C(=O)COc2ccccc2Br)CC1,4.8,2.5,i,0,14,10,3.5,-10,0.67
N=C1c2ccccc2CN1NC(=O)C1CC1,2.1,-2.8,.,4,.,.,.,-1,0.67
